AmpC inh no det – blocks E. coli AmpC beta-lactamase in absence of detergent; P00811; Potency, µM (doses to about 28.7 µM), without a hit: at the highest dose activity change, negative = inhibition; AmpC nitrocefin hydrolysis, absorbance 480 nm, no detergent; potencies from a single point are estimates; 71,000 compounds, 1.8% hits; active = falling curve, for most hits resting on a single point; inconclusive = weak or doubtful change; inactive = flat or rising curve; further: % of control where 0% means no effect; about half of the hits show no inhibition at the top dose; a quarter of the inactives give rising signals
Target sequence (P00811 whole entry, looked up): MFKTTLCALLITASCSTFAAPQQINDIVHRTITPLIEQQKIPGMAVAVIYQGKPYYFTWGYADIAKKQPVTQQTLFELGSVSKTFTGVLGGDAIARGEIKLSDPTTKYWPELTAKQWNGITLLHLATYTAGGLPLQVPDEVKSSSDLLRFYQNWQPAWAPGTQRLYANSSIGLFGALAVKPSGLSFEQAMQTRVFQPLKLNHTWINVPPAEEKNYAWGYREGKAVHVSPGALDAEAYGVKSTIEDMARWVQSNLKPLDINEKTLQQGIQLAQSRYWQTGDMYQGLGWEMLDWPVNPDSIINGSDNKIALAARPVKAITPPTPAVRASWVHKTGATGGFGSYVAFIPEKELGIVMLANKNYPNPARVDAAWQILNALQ
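AmpC, 20 mM phosphate pH 7.0; 15 min cpd preinc, RT; start with nitrocefin (800 uM stock); A480 kinetic read, 20 s intervals, 4 min. No-enzyme wells = negative control.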
An asterisk follows results filed as active; ? = inconclusive; [ ] = dose if it differs, or a comment. Potency means the concentration at half of the fitted maximal effect. Not all compounds are listed (hit frequency here may not be typical).

SMILES | AmpC inh no det
COc1ccc(-c2cc3nc4c(c(N5CCC6(CC5)OCCO6)n3n2)CCCC4)cc1 | 93.1%
CCOc1ccc(N2CC(C(=O)Nc3ccc(S(=O)(=O)N4CCOCC4)cc3)CC2=O)cc1 (centres undefined) | 94.5%
CCOC(=O)c1cc(-c2ccco2)nc2c1c(C)nn2CCC#N | 90.3%
C[C@@H]1O[C@H](O[C@H]2C[C@@H](O)[C@]3(CO)[C@H]4[C@H](O)C[C@]5(C)[C@@H](C6=CC(=O)OC6)CC[C@@]5(O)[C@H]4CC[C@]3(O)C2)[C@@H](O)[C@H](O)[C@H]1O | -2.6%
Cc1cc2ncn(/N=C/c3cccnc3)c2cc1C | 77.5%
O=C(c1cccc(C(=O)N2CCN(c3ccccc3)CC2)c1)N1CCN(c2ccccc2)CC1 | 125.6%
Cn1cccc1C(=O)N1CCC2(CCCN(C(=O)Nc3cccc(F)c3)C2)CC1 | 50.7%
C1=CC2CC1CC2CN1CCN(c2ccccc2)CC1 (centres undefined) | -1.2%
O=C(O)C(=O)/C=C(\O)c1ccc(Br)cc1 | -7.1%[5.75 µM]
Cc1ccc(NC(=O)CC2SC3=NCCCN3C2=O)c(C)c1 (centres undefined) | 10.7%
COc1cccc(C2/C(=C(\O)c3ccc4c(c3)OCO4)C(=O)C(=O)N2CCN(C)C)c1OC (centres undefined) | 9.2%
C/C=C/Cn1c(SCc2ccc(Cl)cc2)nc2c1c(=O)[nH]c(=O)n2C | 17.1%
CC(=O)NC(Cc1c[nH]c2ccccc12)C(=O)N1CCc2ccccc2C1 (centres undefined) | 114.1%
COc1ccc(C(=O)N(Cc2ccco2)Cc2cccs2)c(O)c1 | ?
CCOC(=O)c1cccc(N2C(=O)C3C(C(=O)NC4CC4)C4(C)C=CC3(O4)C2C(=O)NC(C)(C)C)c1 (centres undefined) | 12.8%
Cc1cccc(C2N(c3ccc(F)cc3)C(=O)C3CCCN32)c1 (centres undefined) | 12.3%
CCc1ccc(Nc2cc(=O)n(C3CCCCC3)c(=O)[nH]2)cc1 | -23.1%
O=C(Nc1nc(-c2ccco2)c(-c2ccco2)s1)C1CC(=O)N(c2ccc3c(c2)OCCO3)C1 (centres undefined) | 1.0%
COc1cccc(-n2c(COc3ccccc3C)nnc2SCC(=O)O)c1 | 4.9%
CCn1c(N2CCC(C)CC2)nc2c1c(=O)n(C)c(=O)n2C | 54.1%
CCCC(C)C(=O)Nc1cccc(NC(C)=O)c1 (centres undefined) | 10.4%
CCOC(=O)c1c(C)[nH]c(C(=O)CSc2nnnn2-c2ccc(C)cc2)c1C | -15.2%
CCN1C(=O)N(CC)C2C1N(C(C)=O)C(=O)N2C(C)=O (centres undefined) | -0.6%
Cc1cc(C(F)(F)F)nn1CC(=O)NCc1ccccc1 | -14.2%
O=C(NCc1ccco1)c1cc2nc(C3CC3)cc(C(F)(F)F)n2n1 | 7.8%
COc1cc(NC(=O)c2onc(C)c2Cl)c(OC)cc1Cl | 7.9%
CCCCCC/C(C=O)=C\c1ccccc1 | -5.2%
NS(=O)(=O)c1ccc(N=Cc2c(O)n(C3CCCCC3)c(=O)n(C3CCCCC3)c2=O)cc1 | 1.5%
CCc1nnc(NC(=O)Nc2ccccc2OC)s1 | 7.6%
O=C(NCCN1CCCCC1)c1ccc2c(c1)OCCO2 | 2.3%
COc1ccccc1-c1cc(C(F)(F)F)nc(N2CCN(c3ccccc3)CC2)n1 | 6.0%
CCCn1c(-c2ccc(F)cc2)nc2c(NC3CCN(Cc4ccccc4)C3)nc(C)nc21 (centres undefined) | 101.9%
Cc1cc2nc(-c3ccc(SCC(=O)N4CCN(C(=O)c5ccco5)CC4)nc3)[nH]c2cc1C | 123.1%
CC(=O)c1cccc(NC(=O)C2CCN(S(=O)(=O)c3ccc(C)cc3)CC2)c1 | -2.4%
O=C(C1CCCN1S(=O)(=O)c1cccc2cccnc12)N1CCn2c1nc1ccccc12 (centres undefined) | 89.9%
CCOC(=O)c1c(NC(=O)OC)sc2c1CCC2 | 27.5%
Cc1ccc(N2CCCCn3c2nc2c3c(=O)[nH]c(=O)n2C)cc1 | -0.2%
CC(=O)N1CCN(c2ccc(Nc3ncnc4c3oc3ccccc34)cc2)CC1 | 102.5%
O=C(CCc1ccccc1)Nc1ccc(Cl)cn1 | -11.6%
N#Cc1ccc(NC(=O)Nc2ccc(Cl)cc2)cc1 | ?
O=C(Nc1nccs1)c1cc2sccc2n1Cc1ccc(F)cc1 | ?
O=C(c1cccc(F)c1)N1CCN(S(=O)(=O)c2ccccc2)CC1 | 17.1%
O=C(CCN1CCCCC1)Nn1c(=S)[nH]c2ccccc2c1=O | -9.4%
O=C(NCCSc1ccccc1)c1cccnc1 | -4.3%
O=C(CCn1nnc2ccccc2c1=O)N[C@H](C(=O)O)c1ccccc1 | 11.5%
COc1ccc(-c2cc(C(F)(F)F)nc(SCC(=O)Nc3cc(C)on3)n2)cc1 | 2.8%
Cc1ccc2c(c1)c1ncnc(N3CCC4(CC3)OCCO4)c1n2C | 125.3%
Cc1cccc(-c2cc3nc4c(c(N5CCCC(O)C5)n3n2)CCC4)c1 (centres undefined) | 105.2%
COCCN(C(=O)CCCC(=O)Nc1ccccn1)C(C(=O)NC1CCCCC1)c1ccc(C)cc1 (centres undefined) | 109.7%
CCOc1ccccc1N(CC(=O)NC1CCCCC1)S(C)(=O)=O | 38.3%

Next results.
SMILES | AmpC inh no det
O=C(Cc1ccccc1)Nc1nc(-c2cccs2)cs1 | ?
CCN=C1SC(C(=O)NCCc2ccccc2)CC(=O)N1CC (centres undefined) | 7.9%
COC(=O)c1ccccc1NC(=O)CSc1nc(O)cc(=O)n1C1CCCC1 | -8.5%
Cc1cccc(/N=C/c2c(O)n(-c3cc(Cl)ccc3N3CCOCC3)c(=O)c3ccccc23)n1 | 88.3%
CCn1cc(NC(=O)Nc2ccc(OC)c(OC)c2)c(C(N)=O)n1 | 6.1%
Cc1ccc(C(=O)CSc2nnc(Cn3nnc4ccccc43)n2C)cc1 | 24.7%
Cc1cc2occ(CC(=O)NC3=NCCS3)c2cc1C(C)C | 4.6%
COC(=O)c1cc(Br)ccc1-c1ccc(/C=N/n2nnnc2N)o1 | 14.3%
c1ccc(NCCSc2nc3ccccc3s2)cc1 | -11.3%[5.75 µM]
CCOc1ccccc1N(CC)C(=O)Cn1ncc2c(=O)oc3ccccc3c21 | 18.1%
COc1c2ccoc2nc2c(OC)c(OC[C@H](O)C(C)(C)O)ccc12 | 8.6%
COc1ccc2cc3[n+](cc2c1OC)CCc1cc2c(cc1-3)OCO2 | 10.9%
COc1ccc2c3c(c(=O)oc2c1OCC(N)=O)CCCC3 | 14.3%
CN(C)c1nc(SCCOC(=O)COc2ccc(Cl)cc2Cl)nc(N(C)C)n1 | 20.6%
Cc1cccc(N2CCN(C(=O)C3CCCN(S(=O)(=O)c4cccc5cccnc45)C3)CC2)c1C (centres undefined) | 8.2%
N#C/C(=C\c1c[nH]c2ccccc12)C(=O)c1ccc(O)c(O)c1 | -13.0%
c1cncc(-c2nc(NCc3ccco3)c3ccccc3n2)c1 | -4.3%
N#Cc1nc(Cc2ccccc2)oc1N1CCN(c2cccc(Cl)c2)CC1 | 0.7%
O=C(Nc1nccs1)c1nc(-c2ccccc2)n(-c2ccccc2)n1 | 2.6%
CC(CCO)Nc1nc2c([nH]1)c(=O)n(C)c(=O)n2C (centres undefined) | -4.6%
Cc1ccc2cc(CCNC(=O)c3ccco3)c(=O)[nH]c2c1C | 1.9%
Cc1ccccc1C(=O)N1CCN(c2nc(N3CCOCC3)nc(N3CCOCC3)n2)CC1 | 80.4%
COC(=O)N/C(C)=C1/NC(=O)c2ccccc2C(c2ccccc2)N1 (centres undefined) | -0.9%
CCOCCCNC(=O)c1cn(C)c(=O)c2cc(OC)c(OC)cc12 | 7.0%
CCNc1cccc2c1C(=O)N(C)C2=O | 4.0%
CCn1cc(C(=O)NCc2ccc3c(c2)OCO3)c2cc(OC)c(OC)cc2c1=O | 108.3%
Cn1cc(S(=O)(=O)N2CCC(Cc3ccccc3)CC2)c(=O)n(C)c1=O | 6.4%
COc1cc(C)c(CNc2ccc(OC)c(OC)c2)cc1C | 38.6%
Cn1c(=O)c2c(SC3CCCC3)nc(CC(C)(C)C)nc2n(C)c1=O | 44.6%
CCOC(=O)CSC1=C(C#N)C(c2ccco2)C(C(=O)Nc2cccc(C(F)(F)F)c2)=C(C)N1 (centres undefined) | 20.6%
CC(=O)N(c1ccccc1)c1c(F)c(F)c(F)c(F)c1F | 12.6%
COc1ccc2nc(Nc3nc(C)c(C(C)=O)s3)sc2c1 | 122.1%
CCCS(=O)(=O)N1CCC(C(=O)NCC2CCCO2)CC1 (centres undefined) | -9.9%
c1ccc(C2C3=C(CCCC3)Nc3ncnn32)cc1 (centres undefined) | -1.6%
O=C1CCC(c2ccccc2)N1C(=O)c1cccnc1 (centres undefined) | -1.3%
O=C(Nc1cnccn1)C1c2ccccc2Oc2ccccc21 | -15.1%
O=C(Nc1nccs1)C1CCCN(S(=O)(=O)c2cccnc2)C1 (centres undefined) | 3.98µM*[single pt active]
O=C(O)c1ccccc1-c1ccccc1C(=O)Nc1ccc2c(c1)[nH]c(=O)c1ccccc12 | -6.5%[5.75 µM]
CCN(CC)S(=O)(=O)c1ccc2c(c1)nc(CCC(=O)OCC(=O)N1CCc3ccccc31)n2C | 92.7%
CCCCCn1c(CNC(=O)COC)nc2ccccc21 | 21.9%
CCOC(=O)n1ccn(C)c1=S | 1.4%[12.8 µM]
CC1CC1C(=O)OCC(=O)NCc1ccccc1Cl (centres undefined) | 7.9%
O=C1c2ccccc2C(=O)N1CCC(c1ccc(F)cc1)c1ccco1 (centres undefined) | 5.0%
O=C(CSc1nnc(COc2cccc3ccccc23)o1)N1CCN(C(=O)c2ccco2)CC1 | 123.6%
COc1ccc(C2C(C(=O)N3CCOCC3)=C(C)NC3=C2C(=O)CC(C)(C)C3)cc1O (centres undefined) | -1.6%
CC(C)CN(CC(C)C)C(=O)CS(=O)(=O)Cc1ccccc1 | -2.9%
COc1ccc(CCn2c(-c3ccco3)nc3oc4ccccc4c(=O)c3c2=O)cc1 | -4.1%
CCCNC(=O)NC1C(NC(=O)NCCC)N(C)C(=O)N1C (centres undefined) | -5.6%
CC(C(=O)Nc1ccccn1)N1C(=O)C2C3C=CC(C3)C2C1=O (centres undefined) | -1.2%
CC(=O)NC1C(=O)N=C(SCC(=O)NC(C)c2ccccc2)NC1=O (centres undefined) | 10.7%

(list continues)
SMILES | AmpC inh no det
O=C(O)C(Sc1ccc(Cl)cc1)Sc1ccc(Cl)cc1 | 2.9%[5.75 µM]
COCc1cc(C)nc(SCC(=O)N2CCC(C)CC2)c1C#N | 90.0%
O=C(CSc1nnc(-c2cccnc2)o1)Oc1ccccc1 | 0.6%
COc1ccccc1NC(=O)CSc1nnc(-c2ccccn2)n1Cc1ccco1 | 0.4%
Cc1ccc(CN2CCN(Cc3ccc(C)o3)[C@@H](C)C2)o1 | -0.8%[5.75 µM]
Cc1ccc2cc(CN(Cc3ccc4c(c3)OCO4)Cc3nnnn3Cc3ccco3)c(=O)[nH]c2c1 | 19.6%
CC(C)C[C@@H](N)C(=O)Nc1ccc2ccccc2c1 | 3.7%[5.75 µM]
CCCCC(CC)COC(=O)c1ccccc1C(=O)OCC(CC)CCCC (centres undefined) | -4.0%
Cn1nnnc1SCC(=O)Nc1ccc(Br)cc1Cl | -6.4%
CN(C)C(=S)c1ccc2ccccc2n1 | -1.1%
CCOC(=O)CNC(=O)Nc1cc(C(C)(C)C)nn1-c1ccccc1 | 5.5%
C=CC(C)(C)c1[nH]c2ccccc2c1C1=C(O)C(=O)C(c2c[nH]c3c(CC=C(C)C)cccc23)=C(O)C1=O | ?
COc1ccc(NC(=O)N2CCC3(CC2)CCN(C(=O)c2ccco2)CC3)cc1 | 32.8%
CCOC(=O)CNC(=O)CSc1nnnn1-c1ccc(C)c(C)c1 | 14.5%
Cc1cc(NC(=O)c2noc3c2CCCCC3)nn1Cc1ccc(Cl)cc1 | -0.9%
CC(NC(=O)c1ccccc1)c1nc2ccccc2n1Cc1ccc(C#N)cc1 (centres undefined) | 45.1%
CCOc1ccc(Oc2nc(NCC(C)C)nc(OC)n2)nn1 | 11.4%
CCC(C)(C(=O)NC1CCCCC1)N(CC1CCCO1)C(=O)c1ccccn1 (centres undefined) | 28.5%
COc1ccc(OC)c(NC(=O)C(CC(=O)O)NCc2ccco2)c1 (centres undefined) | -4.7%
COc1cc(C2C3C(=O)N(c4ccccc4)C(=O)C3ON2c2ccccc2)cc(OC)c1OC (centres undefined) | 81.4%
CC(=O)Nc1c(C#N)c(C(C)(C)C)cn1C | -2.3%
Cc1nc2cnc(N3CCNCC3)nc2n(-c2ccccc2)c1=O | 23.8%
COCC(=O)Nc1sc2c(c1C(=O)OC)C(C(=O)OC)CC2 (centres undefined) | 27.0%
CCOc1ccc2nc(NC(=O)Cn3cnc4c3c(=O)n(C)c(=O)n4C)sc2c1 | 104.0%
O=C(OCC(=O)N1CCCCCC1)c1n[nH]c(=O)c2ccccc12 | 7.4%
COc1ccccc1CNc1ncnc2ccc(-c3cccc(C#N)c3)cc12 | 21.4%

An excerpt of these results, as labelled records:
O=C1CCC(c2ccccc2)N1C(=O)c1cccnc1 (centres undefined)
- AmpC inh no det: -1.3%

CC(C)C[C@@H](N)C(=O)Nc1ccc2ccccc2c1
- AmpC inh no det: 3.7%[5.75 µM]

Cn1c(=O)c2c(SC3CCCC3)nc(CC(C)(C)C)nc2n(C)c1=O
- AmpC inh no det: 44.6%
